gsp ag – gsp mutant agonism | gsp mutant cells, cAMP HTRF, 30 min; control for the full effect not named in the record | Potency, µM (titrated, usually from 76.9 µM), inactives show at the top dose activation (cAMP increase), actives largely listed as activators | 0.13% of 340,000 active; active = well fitted activation curve with a large enough effect; inconclusive = small, poorly fitted or top-dose-only effect, or another doubt; inactive = no such curve, though single readings can be large or run the other way; cell line not stated here;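 further: phosphodiesterase inhibitor Ro 20-1724 added with compounds to block cAMP breakdown; potency means the concentration at half of the fitted maximal effect; nearly all actives have a fitted effect of over 60% in size; about a fifth of the inactives were tested at one dose only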
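Cells stably selected in G418 were plated at 2000/well, grown 16-24 hr, then given compounds in DMSO with the PDE inhibitor […] (300 uM solution added) for 30 min at 37C; cAMP was read by HTRF.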
TRPV1 potentiator – enhances activation of the human vanilloid receptor TRPV1. AID 540277. 0.02% of 320,000 active. Q8NER1. TRPV1-expressing cells, Fluo-8 calcium influx, capsaicin EC20 potentiation; host cell line not named in the record; control for the full effect not named in the record. potentiation, % at 8.33 µM; active means potentiation above 80%; inconclusive means 30% to 80%; inactive means below 30%; further: 0% is about no effect
Target sequence (Q8NER1 whole entry, looked up): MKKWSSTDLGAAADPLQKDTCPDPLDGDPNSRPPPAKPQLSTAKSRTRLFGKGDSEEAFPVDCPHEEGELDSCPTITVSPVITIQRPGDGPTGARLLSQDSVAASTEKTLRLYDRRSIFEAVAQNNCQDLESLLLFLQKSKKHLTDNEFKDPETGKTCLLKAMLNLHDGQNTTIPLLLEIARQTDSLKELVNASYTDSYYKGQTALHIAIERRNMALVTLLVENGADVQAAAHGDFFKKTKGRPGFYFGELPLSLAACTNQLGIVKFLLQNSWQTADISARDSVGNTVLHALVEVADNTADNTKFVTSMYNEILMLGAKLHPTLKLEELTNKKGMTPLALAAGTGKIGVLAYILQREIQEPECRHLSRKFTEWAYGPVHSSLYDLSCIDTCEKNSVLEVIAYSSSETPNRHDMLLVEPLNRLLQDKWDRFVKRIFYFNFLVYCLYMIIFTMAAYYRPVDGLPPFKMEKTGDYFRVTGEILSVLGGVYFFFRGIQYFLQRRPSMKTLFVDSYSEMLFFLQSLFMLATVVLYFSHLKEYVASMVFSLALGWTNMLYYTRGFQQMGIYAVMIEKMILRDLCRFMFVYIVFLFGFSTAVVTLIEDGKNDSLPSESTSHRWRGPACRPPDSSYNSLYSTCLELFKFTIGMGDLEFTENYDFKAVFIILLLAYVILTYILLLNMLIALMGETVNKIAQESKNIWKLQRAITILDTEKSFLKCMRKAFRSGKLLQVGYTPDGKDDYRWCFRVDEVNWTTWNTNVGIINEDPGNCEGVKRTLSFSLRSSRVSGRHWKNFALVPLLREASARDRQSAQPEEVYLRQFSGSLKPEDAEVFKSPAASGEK
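Fluo-8 calcium influx in TRPV1-expressing cells, kinetic read (ex 480/em 520 nm). Compound added and read 3 min for agonist activity, followed by capsaicin at EC20 final and 2 min further read for enhancement.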
Sfp inh – blocks B. subtilis Sfp PPTase activity | Q9F4F7 | Biochemical Sfp PPTase activity, qHTS | Potency, µM, inactives show max response, negative = inhibition, most hits filed as inhibitors | 3.5% of 310,000 active | AID 1490; active means well fitted inhibition curve with a large enough effect; inconclusive means small, poorly fitted or top-dose-only effect, or another doubt; inactive means no such curve, though single readings can be large or run the other way;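 further: the enzyme is Sfp with the accession as filed and its product quenches rhodamine fluorescence; potency means the concentration at half of the fitted maximal effect; 0% = enzyme reaction without inhibitor and -100% = no enzyme wells; top concentration of the series not given in the record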
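Sfp 15 nM + cpd, 15 min RT; start w/ rhodamine-CoA 5 uM, BHQ-2-YbbR 12.5 uM (final); 50 mM Hepes pH 7.6, 10 mM MgCl2, 0.01% NP-40, 0.01% BSA; read 525/598 nm at 0 and 30 min.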
Menin MLL FP FL – inhibitors of human menin-MLL interaction, wild-type MLL peptide; Fluorescence polarization, fluorescein-MLL peptide displacement from menin; FP activity change, % at 61.4 µM; 290,000 tested, under 10 active; AID 1766; inconclusive = falling polarisation curve, or a change in total fluorescence; inactive = total fluorescence flat and polarisation flat or rising; no compound was filed as active; the % refers to the polarisation; negative = inhibition;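 further: % of control where 0% means no effect; inhibitors lower the polarisation; unlabelled MLL peptide was the positive control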
ClpP mod – qHTS Assay for Activators of ClpP; purified B. subtilis ClpP, FRET peptide cleavage, 20 min; Potency, µM (titrated, usually from 57.5 µM), without a hit: at the top dose activity change, negative = active; 1.9% of 340,000 active; ATP-dependent Clp protease proteolytic subunit (Bacillus subtilis (strain 168)), P80244; AID 651965, 2013; active = well fitted falling curve with a large enough effect; inconclusive = small, poorly fitted or top-dose-only effect; inactive = no such curve, though single readings can be large or run the other way; further: potency means the concentration at half of the fitted maximal effect; the source files actives as falling curves though it sought activators and does not explain the sign; nearly all actives have a fitted effect of over 65% in size; many hits overshoot -100%
Target sequence (P80244 whole entry, looked up): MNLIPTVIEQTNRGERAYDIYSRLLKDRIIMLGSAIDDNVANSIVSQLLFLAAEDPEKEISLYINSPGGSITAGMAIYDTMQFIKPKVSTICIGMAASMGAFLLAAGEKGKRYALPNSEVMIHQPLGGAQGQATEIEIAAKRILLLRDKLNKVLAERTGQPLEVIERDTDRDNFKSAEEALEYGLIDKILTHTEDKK
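Buffer: 100 mM Tris/HCl pH8, 100 mM KCl, 0.05% low protease BSA, 2.5% glycerol, 0.01% Tween-20. ClpP 10 microg/mL final; 20 min RT; delta FRET normalized to ADEP and DMSO controls.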
gsp antag – antagonizes gsp, the McCune-Albright syndrome mutation | gsp-mutant cells, cAMP HTRF, 30 min; control for the full effect not named in the record | Potency, µM (series often up to 76.9 µM), for inactives: top-dose activity change, negative = inhibition, usual class: inhibitors | 0.4% of 340,000 active; active = falling curve of any shape with a large fitted effect; inconclusive = falling curve, mostly with a smaller effect; inactive = flat or rising curve; cell line not stated here;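 further: intracellular cAMP measured with PDE inhibitor Ro 20-1724 present during compound exposure; potency means the concentration at half of the fitted maximal effect; on the % scale 0 is the no-effect control and ±100 the full control effect; nearly all actives have a fitted effect of over 65% in size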
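Cells, 2000/well, grown 16–24 h in DMEM 10% FBS with 0.5 mg/ml G418, then compounds plus […] (300 uM addition stock), 30 min at 37C. cAMP read by HTRF (cAMP-d2 and anti-cAMP antibody-K in lysis buffer) after 30 min RT.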
TRPML1 blocker – blocks the human TRPML1 channel | Q9GZU1 | TRPML1-inducible cells, Ca2+ dye fluorescence, FDSS; stronger effect = lower value; inhibition of EC80 agonist-evoked calcium signal | activity change, negative = inhibition, % (no concentration beside the values) | 0.02% of 390,000 active | AID 624415; in the data active means activity change below about -50%; inconclusive means about -30% to -50%; inactive means above about -30%;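 further: stimulus is agonist 54-4 at its EC80 concentration; on the % scale 0 is the no-effect control and ±100 the full control effect; compound concentration not given in the record; the text of the record puts the active cut at -80%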
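Calcium fluorescence in TRPML1-DL cells induced overnight with Tet: a 110 s read after compound pin addition, then a 110 s antagonist read after challenge with 54-4 at 4 uM final (EC80).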
Numbers without * were called inactive; ? = inconclusive; . = not tested or not shown; & = joins results of further samples; [ ] = dose if it differs, or a comment.

SMILES	gsp ag	TRPV1 potentiator	Sfp inh	Menin MLL FP FL	ClpP mod	gsp antag	TRPML1 blocker
CC1CCN(C(=O)C2CCCN(c3ncnc4c3nc3n4CCCCC3)C2)CC1 (stereo not drawn)	1%	2	14%	.	-1.0%	-19%	11
CC1(C)C(=O)Nc2ccccc2N1C(=O)COC(=O)Cc1ccc(Cl)c(Cl)c1	-6%	.	.	.	0.0%	5%	-8
COc1cc(Br)c(Br)c(Br)c1N	-16%[15.4 µM]	3	-21%	4.3	.	9%	8
Cc1nc2ccccc2c(=O)n1/N=C/c1cc(Br)ccc1O	23%	-2	-3%	9.6	.	-11%	11
Cc1cc(OCC(=O)Nc2ccc(F)c(F)c2)nc(C(C)C)n1	-25%	3	4%	5.9	0.7%	4%	17
Cc1ccc(-n2c(C)nc3ccsc3c2=O)cc1	4%	.	.	.	.	9%	16
O=C(O)/C=C/C(=O)NCCCc1ccccc1	0%	3	15%	-5.3	1.5%	8%	-10
Cc1ccc(/C=C/C(=O)NCCc2ccccc2)o1	-84%[inhibitor]	9	7.9µM*	-0.2	.	-1%	-16
Cc1ccc(-n2ncc3c2CC(C)(C)CC3NC(=O)CCc2cccnc2)cc1 (stereo not drawn)	1%[15.4 µM]	-11	14%	.	0.4%	-11%	-2
CCc1ccc2c(CN3CCc4cc(OC)c(OC)cc4C3)cc(=O)oc2c1	-8%[15.4 µM]	-13	-6%	3.2	0.0%	-17%	-2
COc1cccc(CNC(=O)CN2CCC(c3nc4ccc(C)cc4[nH]3)CC2)c1	-5%	3	11%	-4.6	-1.2%	1%	-14
COc1cc(SC)ccc1C(=O)Nc1ccccc1	-12%	-1	?	2.0	-3.1%	-27%	37
CN(C)/C=N/c1nc2nccc(-c3ccc(Cl)cc3)n2n1	10%	-7	-10%	0.2	.	0%	-5
Cc1onc(-c2ccccc2)c1C(=O)N1CCN(C)CC1	-19%	14	16%	2.6	-8.3%	5%	20
CCCCCN(C(=O)CCC(=O)OCC(=O)Nc1cccc(SC)c1)c1c(N)n(CCCC)c(=O)[nH]c1=O	-12%	-4	.	.	1.0%	-8%	-11
COc1ccc(CC/C(=N\O)C2(O)CCCCC2)cc1	-6%	5	6%	0.2	-1.2%	13%	-29
CCCCCCC[N+](CC)(CC)CCCCc1ccc(Cl)cc1	.	-12	13%	-0.1[24.8 µM]	1.0%	-4%	-4
Cc1ccc(CNC(=O)Cn2cnc(S(=O)(=O)N3CCC(C)CC3)c2)o1	14%	2	?	1.5	-3.4%	-6%	23
O=C(Cn1[nH]c(=O)c2ccccc2c1=O)OCC(=O)N1CCc2ccccc2C1	-3%	-11	0%	0.0	-2.8%	-1%	-13
COc1ccccc1CCC(=O)N(C)C1CCCN(Cc2ccccc2F)C1 (stereo not drawn)	-18%	-21	-2%	-0.7	0.6%	-8%	7
COc1ccc2cc3c(N)nn(C(=O)Cc4c[nH]c5ccccc45)c3nc2c1	2%	26	-14%	6.4	-3.7%	3%	-8
CCNC(=S)Nc1ccc(S(=O)(=O)Nc2cc(C)nc(C)n2)cc1	3%	0	-14%	-4.5	.	9%	-5
CN(C(=O)c1cccc(NC(=O)Cc2ccc(NC(=O)C3CCN(C(=O)c4ccccc4)CC3)cc2)c1)C1CCCC1	.	.	.	.	-1.1%	-4%	9
Cc1cc(C)c(-n2nnnc2SCC(=O)c2cccs2)c(C)c1	0%[15.4 µM]	4	5%	6.6	.	-11%	0
COC(=O)CCS(=O)(=O)c1ccc(Cl)cc1	-24%	-2	11%	-0.8	0.0%	0%	10
O=C(COC(=O)/C=C/c1ccc(Cl)cc1)NC(=O)NCc1ccccc1	-4%[15.4 µM]	21	.	.	-1.1%	7%	-16
Cc1ccccc1N1C(=S)NC2c3ccccc3OC1(C)C2C(=O)N(C)C (stereo not drawn)	-8%[15.4 µM]	5	-7%	2.9	.	2%	7
CCc1ccc(-n2c(=O)c3ccccc3n(CC(=O)NCc3ccco3)c2=O)cc1	-2%[15.4 µM]	-2	12%	-5.0	.	-2%	8
COc1ccc2nc(C)cc(SCC(=O)O)c2c1	?	-9&1	6%&14%	4.7&3.2	-28%&-27%	17%&13%	30&-14
C=CCN(c1ccc(C(=O)Nc2ccc(NC(C)=O)cc2)cc1)S(C)(=O)=O	14%[15.4 µM]	-3	14%	2.5	.	.	-7
Cc1ccc(/C=N/n2c(-c3ccncc3)n[nH]c2=S)cc1	-11%	14	?	2.3	-2.0%	-24%	0
COc1ccc(Nc2ccc(N3C(=O)CC(C)C3=O)cc2[N+](=O)[O-])cn1 (stereo not drawn)	5%[15.4 µM]	?	18%	?	.	0%	18
COC(=O)Cc1c(C)nc2nc(NCc3ccccc3OC)[nH]n2c1=O	-2%	26	9%	1.8	-1.4%	7%	8
O=C(c1cccs1)N(c1cccc(Cl)c1)C1C=CS(=O)(=O)C1 (stereo not drawn)	-29%	4	10%	0.4	0.2%	3%	-3
CCS(=O)(=O)c1ccc(O)c(NC(=O)c2ccc(S(=O)(=O)N3CCCCCC3)cc2)c1	3%	.	.	.	.	-18%	-4
COc1ccc(-c2cc3cc(OC)c(OC)cc3cn2)cc1OC	2%[15.4 µM]	.	.	.	.	-15%	-4
CCCCN(C)CCN1C(=O)C2C(C(=O)Nc3ccc(Cl)cc3)C3C=CC2(O3)C1C(=O)NC1CCCCC1 (stereo not drawn)	-31%[inhibitor]	12	9%	-1.1	.	9%	6
COc1ccc(OC)c(C(=O)c2ccc(C(=O)N3CCN(Cc4csc(C)n4)CC3)cc2)c1	1%[15.4 µM]	3	0%	-1.9	.	-10%	6
COc1ccc(CCNC(=O)CSCc2ccc(F)cc2)cc1OC	2%	-8	14%	3.0	0.8%	7%	?
CCc1nnc(N2C(=O)c3ccccc3C2(O)c2ccccc2)s1 (stereo not drawn)	6%[15.4 µM]	-3	3%	1.8	.	-11%	-5
CN(C)CCCNc1c2ccccc2nc2ccccc12	-3%[15.4 µM]	-10	-4%	-9.8	.	?	5
COc1ccc(Cl)cc1C(=O)CSc1nnnn1C	24%	2	-14%	11	0.0%	-2%	14
CC(C)CN1CCN(Cc2nc(C(C)C)cs2)CC1CCO (stereo not drawn)	-9%[15.4 µM]	-6	7%	0.8	.	2%	-2
COc1ccc(CC(=O)O)cc1O	4%	6	17%	-2.5	-1.0%	1%	-1
O=C(Nc1ccc(N2CCN(C(=O)c3ccccc3)CC2)cc1)c1ccc([N+](=O)[O-])o1	-1%	0	7%	1.4	2.9%	-7%	23
Cn1nnnc1SCC(=O)Nc1sccc1C(N)=O	6%[15.4 µM]	.	.	.	-2.1%	4%	8
Cc1c(C(=O)O)sc(=S)n1-c1ccccc1	6%	-11	24%	-1.4	0.7%	0%	-9
CC(C)(C)c1cnnn1-c1ccc(NC(=O)c2ccc3c(c2)OCO3)cc1	16%	-6	-3%	3.3	-0.8%	-7%	-5
Clc1ccccc1NN(Cc1ccccn1)c1ccccc1Cl	-9%	.	.	.	2.5%	.	10
COc1ccc(NS(=O)(=O)c2cc3c(cc2C)N(C(C)=O)CCO3)cc1	-5%	17	16%	-1.7	1.5%&-1.2%	-4%	-4&-15

Other structures follow.
SMILES	gsp ag	TRPV1 potentiator	Sfp inh	Menin MLL FP FL	ClpP mod	gsp antag	TRPML1 blocker
Cc1cccc(C)c1NC(=O)C(Cl)C(=O)c1ccccc1 (stereo not drawn)	-8%[15.4 µM]	?	5%	0.0	.	8%	3
CSc1nc(C)cc(C)c1C(N)=O	?	-3	-2%	-2.1	-1.6%	5%	35
CC1(C)CC(=O)C2=C(C1)N(c1ccccc1)C(=O)CC2c1ccc(O)cc1 (stereo not drawn)	-29%	-6	12%	-6.4	-8.2%	-4%	3
Cc1cnn(C(=S)NCCc2ccccc2)c1	10%	2	-5%	2.3	0.6%	-7%	3
CSc1ccc(S(=O)(=O)N2CCC(C(=O)NCc3ccco3)CC2)cc1	11%[15.4 µM]	-5	14%	-2.9	.	-2%	4
O=C1CC2(CCCC2)C(=O)N1CN1CCN(S(=O)(=O)c2ccc(F)cc2F)CC1	-1%[15.4 µM]	.	.	.	0.2%	13%	-9
CC(Sc1ccccc1)C(=O)N1CCN(S(=O)(=O)c2ccccc2)CC1 (stereo not drawn)	5%	-8	14%	.	1.4%	-3%	-2
COc1ccc(-c2[nH]ncc2C=O)cc1OC	-5%[15.4 µM]	13	20%	-6.5	.	14%	-3
O=C(CCSc1ccccc1)N1CCN(C(=O)c2ccco2)CC1	-36%[inhibitor]	14	-16%	3.2	1.0%	-11%	36
COC(=O)CCCCC1SCC2NC(=O)NC21 (stereo not drawn)	-9%[15.4 µM]	-13	21%	0.4	.	9%	-8
c1ccc(-c2noc(-c3cccc4ccccc34)n2)cc1	-23%	3	-13%	1.8	28µM*	-2%	69
CCOC(=O)c1[nH]c(C)c(C(=O)OCC(=O)N2c3ccccc3CC2C)c1C (stereo not drawn)	-30%	-1	21%	-0.2	-1.4%	-15%	14
COc1ccc(N2C(=O)CC(N3CCC(O)(c4ccc(Cl)cc4)CC3)C2=O)cc1 (stereo not drawn)	-78%[inhibitor]	-7	6%	2.3	-2.3%	-20%	4
O=S(=O)(c1cccc(C(F)(F)F)c1)N1CCCC1c1cccnc1 (stereo not drawn)	15%[15.4 µM]	2	9%	2.4	.	3%	30
COc1ccccc1NS(=O)(=O)c1cc(NC(=O)C2=NNC(=O)CC2)ccc1C	33%	0	.	.	4.5%	1%	-9
O=C(CSc1nc2ccccc2[nH]1)Nc1nc(-c2ccccc2)c(-c2ccccc2)o1	-5%	-13	-6%	2.7	?	-3%	-7
Cc1cc(C)c2nc(SCC(=O)N3CC(=O)Nc4ccccc43)c(C#N)cc2c1	35%	22	-13%	?	-11%	-16%	-11
CC(Sc1nncn1-c1ccccc1)C(=O)Nc1cccc([N+](=O)[O-])c1 (stereo not drawn)	-5%	24	3%	.	-8.9%	2%	-5

High-throughput results deposited in PubChem by National Center for Advancing Translational Sciences (NCATS).
